# HSV replic up: increases HSV replication in cells. HSV replication augmentation in cells, fold increase. maximum fold increase. 0.005% of 220,000 active. AID 1956;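 active means peak rise of 1.5-fold or more in the series; inconclusive means self-fluorescent or not available for retest; tested in PC3 cells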;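 further: first round at 10 µM; read as green reporter fluorescence; hits show the peak of a series up to 25 µM; 1 = signal of infected wells without compound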
# GALR2 agonist: activates the human galanin receptor 2 | activation, %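 (tested at 5 µM)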 | AID 803 | GALR2-expressing cells, agonist activation read-out | O43603 | 0.48% of 140,000 active;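 active means above mean plus 3 SD of all compounds, about 5% in these data, not always enough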;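 further: 0% = vehicle buffer wells and 100% = reference agonist at full effect; tested in CHO reporter cells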
# Insulin prom inh: TRM-6 insulin promoter activity inhibition | TRM-6 cells (human fetal islet line), insulin promoter-eGFP reporter, imaging; reporter expression induced with tamoxifen | 0.9% of 130,000 active | inhibition, % at 2 µM;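 active means inhibition above the mean plus 3 SD, with well images judged a real hit on visual review, cut at about 60% in these data, passing the limit was not always enough; inconclusive means inhibition over the cutoff but images rejected on review; inactive means inhibition not above the cutoff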
# PKD1 inh: PKD1 (human) kinase inhibition; 0.056% of 200,000 active; AID 797; PKD1 kinase fluorescence polarization assay; Q15139; inhibition, %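 (about 10 µM by stock and volumes)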;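 active means inhibition of 50% or more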;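 further: controls were vehicle for no effect and a reference inhibitor for full effect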
# Target sequence (Q15139 whole entry, looked up): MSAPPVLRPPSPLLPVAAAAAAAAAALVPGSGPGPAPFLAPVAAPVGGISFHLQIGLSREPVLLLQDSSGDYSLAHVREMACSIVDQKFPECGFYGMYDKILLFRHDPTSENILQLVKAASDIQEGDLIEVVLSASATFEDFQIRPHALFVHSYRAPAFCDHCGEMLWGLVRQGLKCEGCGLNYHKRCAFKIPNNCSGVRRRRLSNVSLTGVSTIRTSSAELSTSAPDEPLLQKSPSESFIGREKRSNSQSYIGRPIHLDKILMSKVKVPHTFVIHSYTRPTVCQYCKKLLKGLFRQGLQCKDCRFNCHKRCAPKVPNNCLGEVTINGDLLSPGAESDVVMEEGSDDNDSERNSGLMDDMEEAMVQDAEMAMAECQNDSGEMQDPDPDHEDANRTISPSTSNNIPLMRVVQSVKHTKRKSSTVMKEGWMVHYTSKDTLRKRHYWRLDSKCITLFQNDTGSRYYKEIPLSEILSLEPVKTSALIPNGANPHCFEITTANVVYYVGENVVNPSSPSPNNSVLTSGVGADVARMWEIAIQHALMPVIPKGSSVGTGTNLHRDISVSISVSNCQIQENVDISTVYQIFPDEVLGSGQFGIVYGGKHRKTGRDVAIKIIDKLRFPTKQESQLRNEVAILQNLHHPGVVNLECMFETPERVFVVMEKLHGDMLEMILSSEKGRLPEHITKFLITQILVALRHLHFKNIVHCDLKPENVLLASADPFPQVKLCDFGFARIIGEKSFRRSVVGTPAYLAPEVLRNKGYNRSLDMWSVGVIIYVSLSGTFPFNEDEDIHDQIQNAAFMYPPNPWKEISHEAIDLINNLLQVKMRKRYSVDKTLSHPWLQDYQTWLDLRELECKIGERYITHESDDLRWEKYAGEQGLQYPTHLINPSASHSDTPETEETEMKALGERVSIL
# RGS16-Gao HTS: regulators of human RGS16-Galphao interaction | binding response (% of control), % at 10 µM | 0.38% of 220,000 active | O15492+P09471 | AID 1441 | bead-based flow cytometry RGS16-Galphao binding, fluorescence; actives lie on both sides;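 active means below 25% or above 175%, edge rows of some plates excepted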;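 further: Galphao activated by GDP with aluminum fluoride before binding; 100% = wells without compound and 0% = beads without RGS; some results beyond the cut were filed as inactive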
# Insulin prom inh cell count: recorded beside Insulin prom inh, whose call it bears; normalized cell count, %; measured here: cell count, toxicity; reference of the scale not given here;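 cells exposed to compound for 48 h; stained nuclei by imaging scaled within each plate; lower means fewer cells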
# HSV replic up primary fold: recorded beside HSV replic up, whose call it bears; fold increase; compound at 10 µM; measured here: primary screen fold increase 10 uM; tested in PC3 cells;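 GFP signal in the first replicate; 1 = infected wells without compound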
# * marks the source's active call; other numbers are inactive results; i = inactive; ? = inconclusive; . = not tested or not shown.
canonical_smiles,HSV replic up,HSV replic up primary fold,GALR2 agonist,Insulin prom inh,Insulin prom inh cell count,PKD1 inh,RGS16-Gao HTS
CCN1CCN(CCNC(=O)c2ccc(CS(=O)(=O)c3c(Cl)cccc3Cl)o2)CC1,i,0.99,-0.8,.,.,9,102
O=C(c1ccc(CN2CCc3ccccc3C2)cc1)N1CCN(c2ccccc2)CC1,i,0.93,-0.8,50,122,7,96
COc1cccc(NC(=O)CC2S/C(=N\S(=O)(=O)c3ccccc3)N(c3ccccc3)C2=O)c1 (stereo not given),i,0.95,-1.6,14,90,12,139
COc1ccc(CNC(=O)C(c2ccco2)N(Cc2cccs2)C(=O)Cc2cccs2)cc1 (stereo not given),i,1.1,-1.4,-80,126,-12,102
OCCC1CN(Cc2nc3ccc(F)cc3[nH]2)CCN1C1CCCC1 (stereo not given),i,1,.,.,.,.,102
C=CCN1C(=O)C2C(C(=O)NC)C3(C)C=CC2(O3)C1C(=O)NCc1ccc(OC)cc1 (stereo not given),i,0.68,-0.6,42,85,-10,103
O=C(NNC(=O)C1COc2ccccc2O1)c1ccccc1 (stereo not given),i,1.2,-2.0,.,.,-3,97
OCc1nc2ccccc2n1CCCOc1ccccc1,i,0.89,-0.7,4,74,-1,91
CC1=NN(C(=O)COc2cc(C)ccc2C(C)C)C(O)(c2ccccc2)C1 (stereo not given),i,0.95,.,.,.,.,105
COc1cccc(C2CC(=O)NC3=C2C(=O)CCC3)c1 (stereo not given),i,1,-1.2,-67,115,-2,106
Cc1ccc2nc3c(c(Nc4ccc5c(c4)OCCO5)c2c1)CCC3,i,0.58,-2.1,17,140,-13,104
N#CC1=C(N)C2=CCCC[C@H]2[C@H](c2ccc(Br)cc2)C1(C#N)C#N,i,0.89,1.0,13,92,0,102
COc1ccc(S(=O)(=O)NCC(c2cccnc2)N2CCN(c3ccccc3OC)CC2)cc1C (stereo not given),i,0.94,-2.1,-186,91,-3,111
O=C(NNC(=O)C1CC(c2cccs2)=NO1)NC1CCCCC1 (stereo not given),i,0.96,.,-107,116,3,100
COc1cccc(/C=N/NC(=O)c2ccc([N+](=O)[O-])cc2Cl)c1O,i,0.9,-2.4,-33,32,1,102
Cn1cccc1C(=O)OCC(=O)N1CC(=O)Nc2ccccc21,i,1,.,56,84,-1,110
COc1ccc(Nc2c3c(c(C#N)c4nc5ccccc5n24)CCC3)cc1,i,0.93,-1.9,.,.,7,98
CSc1ccccc1NC(=O)N1CCCC(C(=O)c2ccc3c(c2)OCO3)C1 (stereo not given),i,1,.,.,.,5,102
O=C1C2=C(SCCS2)C(=O)N1c1ccccc1,i,0.89,-0.8,36,105,-8,109
Nc1cc(OC(=O)c2ccco2)nn1S(=O)(=O)c1ccc(F)cc1,i,1,-0.7,.,.,-3,75
COc1ccccc1Oc1cc(-n2nc(C)cc2C)ncn1,i,0.92,-0.8,.,.,1,102
CCOc1nnnc2c1sc1nc(N3CCOCC3)c3c(c12)CC(C)(C)OC3,.,.,-2.9,-268,147,-3,.
COc1ccc(CCN2C(=O)CC(NC34CC5CC(CC(C5)C3)C4)C2=O)cc1OC (stereo not given),i,1,.,.,.,3,102
CCS(=O)(=O)Nc1ccc(-c2nnc(SCC(=O)OC)o2)cc1,i,0.96,-1.1,-3,110,5,96
CCC1=Nc2cc(C(=O)NCCCOC)ccc2Sc2ccccc21,i,0.6,-2.0,-94,9,0,93
C=CCn1c(CCNC(=O)c2cccs2)nnc1SCC(=O)c1cccc([N+](=O)[O-])c1,i,1,0.4,-11,106,0,95
NC(=O)COC(=O)C12CC3CC(CC(O)(C3)C1)C2,i,0.98,.,-11,91,-2,101
O=C(CCNS(=O)(=O)c1cccc2nsnc12)NCc1ccc(F)cc1,i,1.1,.,-36,84,3,101
Cc1cc(CN2C(=O)c3ccccc3C2=O)on1,i,0.93,0.5,37,122,-8,132
COc1cc(NC(=O)C2CC(=O)NC3=C2C(=O)CCC3)cc(OC)c1 (stereo not given),i,1,-2.2,-53,68,-2,98
CCn1nc(C(=O)OCC(=O)N2c3ccccc3CC2C)c2ccccc2c1=O (stereo not given),i,0.85,-0.9,.,.,-5,85
Cc1onc(-c2c(F)cccc2Cl)c1C(=O)NCc1ccccn1,i,0.81,-2.1,.,.,-2,101
CCCCNC(=O)OCC(CC)NC(=O)OCC(C)C (stereo not given),i,1.1,-3.8,-44,240,-5,97
CCC/C(O)=C1\C(=O)CC(C)(C)CC1=Nc1ccc(OC)cc1OC,i,0.75,-1.2,-16,58,-2,102
CC(=O)Nc1ccc(Cc2nc3ccccc3[nH]2)cc1,i,0.9,.,.,.,-4,98
Cc1ccc(/C=C2/NC(=O)N(Cc3ccccc3F)C2=O)s1,?,.,.,-183,119,-11,100
Cn1c(SCc2ccccc2F)nc2cccnc21,i,0.82,-1.6,3,120,-6,95
C=CCn1c(C)cc(C(=O)COc2ccc(S(=O)(=O)N3CCCC3)cc2[N+](=O)[O-])c1C,i,1,1.0,-20,103,3,113
COc1cc(/C=N/Nc2ccc([N+](=O)[O-])cc2S(=O)(=O)N2CCOCC2)cc(OC)c1OC,i,0.93,-0.8,-64,92,2,102
Cc1ccc(NS(=O)(=O)c2ccc3[nH]c(=O)c(=O)[nH]c3c2)cc1Cl,i,1,.,.,.,8,98
Cc1ccc(NC(=O)CSc2ncn[nH]2)cc1S(=O)(=O)N1CCOCC1,i,0.91,.,45,81,6,108
COc1ccccc1NC(=O)c1cc2c(s1)-c1ccccc1S(=O)(=O)C2,i,0.92,.,.,.,.,103
Cc1ccc(-c2nnc(CCC(=O)N(C)Cc3nccs3)o2)s1,i,1,.,60,91,1,135
COCc1[nH]nc2c1C(c1ccnc3ccccc13)C(C#N)=C(N)O2 (stereo not given),i,0.94,-1.7,.,.,6,101
Nc1cc(=O)[nH]c(=S)n1-c1cccc(C(F)(F)F)c1,i,0.83,0.0,60*,89*,-4,105
COc1ccc(N(C(=O)Cc2cccs2)C(C(=O)NC2CCCCC2)c2cccn2C)cc1 (stereo not given),i,1.1,0.5,-25,190,-2,102
CCOC(=O)C1CCN(C(=O)COc2ccc(N(C)S(=O)(=O)c3ccc(C)cc3)cc2)CC1,i,0.87,.,.,.,-1,100
O=C1c2ccccc2C(=O)N1n1c(=O)[nH]c2ccccc2c1=O,i,0.92,-2.7,6,102,0,103
O=C(CN1CCN(S(=O)(=O)c2ccc(Cl)cc2)CC1)Nc1ccc(F)cc1F,i,0.95,-2.1,-13,62,-4,110
CC(C)c1nc2sc3c(=O)[nH]c(=S)[nH]c3c2c2c1CCC2,i,1.4,0.6,-6,120,7,101
COC(=O)c1cn(NC(=O)/C=C/c2ccc(OC)c(OC)c2)c(=O)c2ccccc12,i,0.93,-2.8,.,.,4,100
CCNC(=O)c1sc2cc(C)ccc2c1Cl,i,0.9,.,-14,116,-6,96
Cc1onc(-c2ccccc2Cl)c1C(=O)NCCn1ccc2ccccc21,i,1.4,-0.4,-27,106,1,93
C=CCOc1cccc(C2C(C(=O)c3ccco3)=C(O)C(=O)N2CCN2CCOCC2)c1 (stereo not given),i,0.87,-0.2,.,.,-1,94
CC1(C)Cc2c(C#N)c(N3CCN(C(=O)c4ccccc4Cl)CC3)nc(-c3ccco3)c2CS1,i,1,-119,.,.,-4,87
C#CCOCCOCCOCCNc1nc(N2CCN(C(=O)[C@H](C)n3cc(CCCN=C(N)N)nn3)CC2)nc(N2CCN(C(=O)[C@H](C)n3cc(CCCN=C(N)N)nn3)CC2)n1,i,0.85,-1.3,41,140,-3,112
O=C(c1ccco1)N1CCN(c2cc(=O)n(C3CCCCC3)c(=O)[nH]2)CC1,i,0.96,-2.0,43,110,-1,108
CN1CCN(C(=O)c2ccc(-c3nn(C)c(=O)c4ccccc34)cc2)CC1,i,1,-1.3,19,116,-9,.
CSC(=S)N/N=C/c1c[nH]c2ccccc12,i,1.1,0.4,.,.,-5,101
N#Cc1ccccc1CSc1ccc(-c2nc3ccccc3[nH]2)cn1,i,0.81,-2.7,3,82,-4,99

# Eleven successive records out of the list so far:
canonical_smiles,HSV replic up,HSV replic up primary fold,GALR2 agonist,Insulin prom inh,Insulin prom inh cell count,PKD1 inh,RGS16-Gao HTS
Cc1ccc(NC(=O)CSc2ncn[nH]2)cc1S(=O)(=O)N1CCOCC1,i,0.91,.,45,81,6,108
COc1ccccc1NC(=O)c1cc2c(s1)-c1ccccc1S(=O)(=O)C2,i,0.92,.,.,.,.,103
Cc1ccc(-c2nnc(CCC(=O)N(C)Cc3nccs3)o2)s1,i,1,.,60,91,1,135
COCc1[nH]nc2c1C(c1ccnc3ccccc13)C(C#N)=C(N)O2 (stereo not given),i,0.94,-1.7,.,.,6,101
Nc1cc(=O)[nH]c(=S)n1-c1cccc(C(F)(F)F)c1,i,0.83,0.0,60*,89*,-4,105
COc1ccc(N(C(=O)Cc2cccs2)C(C(=O)NC2CCCCC2)c2cccn2C)cc1 (stereo not given),i,1.1,0.5,-25,190,-2,102
CCOC(=O)C1CCN(C(=O)COc2ccc(N(C)S(=O)(=O)c3ccc(C)cc3)cc2)CC1,i,0.87,.,.,.,-1,100
O=C1c2ccccc2C(=O)N1n1c(=O)[nH]c2ccccc2c1=O,i,0.92,-2.7,6,102,0,103
O=C(CN1CCN(S(=O)(=O)c2ccc(Cl)cc2)CC1)Nc1ccc(F)cc1F,i,0.95,-2.1,-13,62,-4,110
CC(C)c1nc2sc3c(=O)[nH]c(=S)[nH]c3c2c2c1CCC2,i,1.4,0.6,-6,120,7,101
COC(=O)c1cn(NC(=O)/C=C/c2ccc(OC)c(OC)c2)c(=O)c2ccccc12,i,0.93,-2.8,.,.,4,100

# Next section.
canonical_smiles,HSV replic up,HSV replic up primary fold,GALR2 agonist,Insulin prom inh,Insulin prom inh cell count,PKD1 inh,RGS16-Gao HTS
CCN(CC)c1ccc(/C=N/n2c(-c3ccccc3Br)n[nH]c2=S)cc1,i,1.1,.,.,.,.,104
O=C(c1cccc(S(=O)(=O)N2CCCCC2)c1)N1CCCCC1,i,0.69,-1.1,19,196,-5,98
Cc1cccc(N=Nc2c(C)[nH]n(-c3ccccc3)c2=O)c1,i,1.2,.,.,.,8,106
O=C1ON=C(c2ccccc2)/C1=C/c1ccc(-c2ccccc2[N+](=O)[O-])o1,i,0.94,-0.5,21,71,-10,76
CN=C1S/C(=C\c2cccn2-c2cccc(Br)c2)C(=O)N1C,i,0.78,-1.9,-38,101,-13,.
COc1cccc(NC(=O)C2CC(=O)N(C)C(=Nc3cccc(F)c3)S2)c1 (stereo not given),.,.,-3.6,.,.,-13,106
CCOC(=O)c1sc(NN=C(C(=O)OC)C(=O)OC)c(C(=O)OCC)c1C,i,1.1,-0.8,.,.,2,110
CCN(CC)C(=O)c1sc2nc(N3CCOCC3)c3c(c2c1N)CCCC3,i,1,-1.8,20,56,-1,55
Cc1nn(-c2ccccc2)c(C)c1/C=N/NC(=O)CSc1nc2ccccc2c(=O)n1-c1ccccc1,i,0.98,1.0,27,145,2,103
CCOC(=O)c1ccc(NCn2c(=O)oc3ccccc32)cc1,i,0.98,0.2,.,.,-4,-14*
O=C(Nc1ccc(Cl)cc1Cl)c1ccc(-c2ccccc2)cc1,i,0.84,-1.0,29,137,-4,28
Cn1c(N2CCCCC2)nc2c1c(=O)[nH]c(=O)n2C,i,0.76,-1.5,.,.,5,103
COc1ccc2c(c1)/C(=N/N1C(=O)c3ccccc3C1=O)C(=O)N2,i,0.94,.,.,.,-1,98
C=CCSc1nnc(CSc2nc3sc4c(c3c(=O)[nH]2)CCCC4)n1-c1ccccc1,i,0.99,-0.7,.,.,-15,101
Cc1csc2ncnc(N3CCN(C(=S)Nc4ccc(F)cc4F)CC3)c12,i,1,.,.,.,.,92
CCCc1nc2ccccc2c(=O)n1/N=C/c1ccccc1O,i,0.83,-0.5,.,.,-5,112
CCOC(=O)CSc1n[nH]c(NC(=O)c2cccc(C)c2)n1,i,0.98,-0.9,43,58,14,128
